Menin-MLL FL inh: qHTS Assay for Inhibitors Targeting the Menin-MLL Interaction in MLL Related Leukemias: Competition With Fluorescein Labeled MLL-derived Peptide. Fluorescence polarization, fluorescein-MLL peptide displacement from menin. FP activity change, % at 61.4 µM. 290,000 tested, under 10 active. AID 1766, 2009; inconclusive = falling polarisation curve, or a change in total fluorescence; inactive = total fluorescence flat and polarisation flat or rising; no compound was filed as active; the % refers to the polarisation; negative = inhibition;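 further: % of control where 0% means no effect; inhibitors lower the polarisation; unlabelled MLL peptide was the positive control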
TRPV1 potentiator: HTS Assay for Compounds that Act as Potentiators of the Vanilloid Receptor 1 | TRPV1-expressing cells, Fluo-8 calcium influx, capsaicin EC20 potentiation; host cell line not named in the record; control for the full effect not named in the record | potentiation, % at 8.33 µM | Transient receptor potential cation channel subfamily V member 1 (Homo sapiens), Q8NER1 | 320,000 tested, 0.02% active; active means potentiation above 80%; inconclusive means 30% to 80%; inactive means below 30%; further: 0% is about no effect
Target sequence (Q8NER1 whole entry, looked up): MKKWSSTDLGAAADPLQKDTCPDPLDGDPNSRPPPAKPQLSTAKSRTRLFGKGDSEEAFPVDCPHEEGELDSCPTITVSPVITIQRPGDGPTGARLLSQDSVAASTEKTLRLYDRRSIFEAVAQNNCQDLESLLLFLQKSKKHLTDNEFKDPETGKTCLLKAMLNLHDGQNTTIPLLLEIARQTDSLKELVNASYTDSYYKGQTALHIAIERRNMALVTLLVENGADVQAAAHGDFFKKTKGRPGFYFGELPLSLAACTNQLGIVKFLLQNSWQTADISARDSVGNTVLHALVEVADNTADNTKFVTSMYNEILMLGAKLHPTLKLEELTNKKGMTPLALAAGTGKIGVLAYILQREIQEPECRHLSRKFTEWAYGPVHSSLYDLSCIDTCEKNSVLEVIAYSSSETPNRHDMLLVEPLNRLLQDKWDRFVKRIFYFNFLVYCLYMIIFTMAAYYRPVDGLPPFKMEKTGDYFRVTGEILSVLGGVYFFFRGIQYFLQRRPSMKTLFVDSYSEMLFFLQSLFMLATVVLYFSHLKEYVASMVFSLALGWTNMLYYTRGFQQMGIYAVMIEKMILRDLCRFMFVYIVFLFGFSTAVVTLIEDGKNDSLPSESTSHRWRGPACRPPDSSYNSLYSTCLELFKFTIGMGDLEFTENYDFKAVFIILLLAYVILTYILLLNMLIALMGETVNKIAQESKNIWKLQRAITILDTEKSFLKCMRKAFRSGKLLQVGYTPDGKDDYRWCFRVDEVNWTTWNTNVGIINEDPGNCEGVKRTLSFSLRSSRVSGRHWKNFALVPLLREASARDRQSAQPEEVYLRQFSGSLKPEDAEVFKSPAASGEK
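TRPV1-expressing cells were cultured overnight at 35.5C and loaded with Fluo-8 calcium dye for 40 to 90 min at room temperature. After a 10 s baseline, compound was added and calcium influx was read kinetically for 3 min (ex 480/em 520 nm).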
PINK1 modulator: A Quantitative High throughput Screen to Identify Chemical Modulators of PINK1 Expression. Potency, µM (top dose mostly 76.6 µM), without a hit: at the top dose activation (PINK1 increase), hits mostly activators. AID 624263, 2012. 410,000 tested, 0.2% active. PINK1 immunofluorescence, high-content cytometry, 24 h; active = well fitted activation curve with a large enough effect; inconclusive = small, poorly fitted or top-dose-only effect; inactive = flat fitted curve, though single readings scatter; cell line not stated here;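 further: potency means the concentration at half of the fitted maximal effect; % of control where 0% means no effect; nearly all actives have a fitted effect of over 65% in size; a mitochondrial uncoupler was the plate control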
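Stable cell line, 250 cells/well, 12 h attachment; compounds pinned at 5 concentrations, 24 h; CCCP control. Fixed with nuclear dye, primary antibodies 12 h at 10 degrees C, secondary plus cell stain; laser-scanning cytometer read.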
Sfp PPTase inh: qHTS Assay for Inhibitors of Bacillus subtilis Sfp phosphopantetheinyl transferase (PPTase); 4'-phosphopantetheinyl transferase ffp (Bacillus subtilis), Q9F4F7; Biochemical Sfp PPTase activity, qHTS; Potency, µM, for inactives: max response, negative = inhibition, usual class: inhibitors; 310,000 tested, 3.5% active; active means well fitted inhibition curve with a large enough effect; inconclusive means small, poorly fitted or top-dose-only effect, or another doubt; inactive means no such curve, though single readings can be large or run the other way;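 further: the enzyme is Sfp with the accession as filed and its product quenches rhodamine fluorescence; potency means the concentration at half of the fitted maximal effect; 0% = enzyme reaction without inhibitor and -100% = no enzyme wells; top concentration of the series not given in the record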
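Reaction rates are the 30-min fluorescence difference (ex 525, em 598 nm) in wells containing 15 nM Sfp, 5 uM rhodamine-CoA and 12.5 uM BHQ-2-YbbR at pH 7.6 with 10 mM MgCl2.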
TRPML1 blocker: qHTS for Inhibitors of the Human Mucolipin Transient Receptor Potential 1 (TRPML1) | Mucolipin-1 (Homo sapiens), Q9GZU1 | TRPML1-inducible cells, Ca2+ dye fluorescence, FDSS; active compounds read low; inhibition of EC80 agonist-evoked calcium signal | activity change, negative = inhibition, % (concentration not given with the values) | 390,000 tested, 0.02% active | AID 624415, 2012; in the data active means activity change below about -50%; inconclusive means about -30% to -50%; inactive means above about -30%;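 further: stimulus is agonist 54-4 at its EC80 concentration; on the % scale 0 is the no-effect control and ±100 the full control effect; the text of the record puts the active cut at -80%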
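Calcium fluorescence in TRPML1-DL cells induced overnight with Tet: a 110 s read after compound pin addition, then a 110 s antagonist read after challenge with 54-4 at 4 uM final (EC80).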
TRPML1 agonist: qHTS for Agonists of the Human Mucolipin Transient Receptor Potential 1 (TRPML1); activation, % (no concentration beside the values); TRPML1-expressing cells, Ca2+ dye fluorescence, FDSS; host cell line not named in the record; reference of the full effect not given here; AID 624414, 2012; 410,000 tested, 0.12% active; in the data active = activation above about 50%; inconclusive = about 30% to 50%; inactive = below about 30%; further: 0% is about no effect; the text of the record puts the active cut at 80%
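Tet-induced TRPML1-DL cells, 1,500 per well, cultured overnight, were loaded with a no-wash Ca2+ dye for 45–90 min. Calcium fluorescence was recorded on the FDSS for 110 s after compound addition, before the EC80 agonist (4 uM 54-4) was added.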
ClpP mod: qHTS Assay for Activators of ClpP. ATP-dependent Clp protease proteolytic subunit (Bacillus subtilis (strain 168)), P80244. purified B. subtilis ClpP, FRET peptide cleavage, 20 min. Potency, µM (titrated, usually from 57.5 µM), inactives show top-dose activity change, negative = active. 340,000 tested, 1.9% active. AID 651965, 2013; active = well fitted falling curve with a large enough effect; inconclusive = small, poorly fitted or top-dose-only effect; inactive = no such curve, though single readings can be large or run the other way; further: potency means the concentration at half of the fitted maximal effect; the source files actives as falling curves though it sought activators and does not explain the sign; nearly all actives have a fitted effect of over 65% in size; many hits overshoot -100%
Target sequence (P80244 whole entry, looked up): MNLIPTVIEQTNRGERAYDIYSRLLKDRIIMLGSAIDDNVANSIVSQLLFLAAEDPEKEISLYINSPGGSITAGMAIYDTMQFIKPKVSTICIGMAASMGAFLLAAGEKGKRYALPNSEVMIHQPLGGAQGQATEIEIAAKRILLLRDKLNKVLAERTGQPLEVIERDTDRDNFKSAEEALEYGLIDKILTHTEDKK
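Purified B. subtilis ClpP, 10 microg/mL final in Tris/HCl pH8 with KCl, BSA, glycerol and Tween-20, cleaved an Abz/nitrotyrosine-quenched decapeptide. Fluorescence (ex 320, em 430) was read at 0 and 20 min at room temperature. Delta was normalized to 5.8 microM ADEP and DMSO/no-enzyme controls.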
Starred values were filed as active, the others as inactive; ? = inconclusive; . = no result given; [ ] = dose if it differs, or a comment.

SMILES	Menin-MLL FL inh	TRPV1 potentiator	PINK1 modulator	Sfp PPTase inh	TRPML1 blocker	TRPML1 agonist	ClpP mod
CC(C)CN(CC(C)C)C(=O)C12CCC(C)(C(=O)O1)C2(C)C (stereo not drawn)	-5.0	?	-2.2%	2%	8	0.0	0.7%
O=[N+]([O-])c1cc(-c2nc(-c3ccccc3)no2)ccc1NC1CCCCC1	.	.	15%	.	27	-0.7	2.7%
COc1ccc(OCc2cc(C(=O)NC(C)Cc3ccccn3)no2)c(Cl)c1 (stereo not drawn)	.	-10	-0.6%	-6%	-8	0.7	-2.3%
Cn1nnnc1SCC(=O)N1N=C(c2cccs2)CC1c1cccs1 (stereo not drawn)	.	.	0.3%	.	-4	-0.1	-17%
O=C(CN1C(=O)NC2(CCc3ccccc32)C1=O)NCC(=O)Nc1ccc(F)cc1 (stereo not drawn)	.	-3	-1.0%	.	-4	-0.4	0.3%
CCc1nc2c(OCc3c(C)noc3C)cccn2c1N(C=O)Cc1ccccc1	.	.	2.2%	.	.	-1.0	-3.5%
c1cncc(-c2noc(CC3CCCCC3)n2)c1	2.6	0	-0.7%	20%	-12	-0.1	-0.2%
CS(=O)(=O)c1ccccc1C(=O)N(CCc1ccccc1)Cc1ccccc1	.	-4	1.5%	17%	-14	-0.2	-26%
COc1cccc(C2CC(=O)Nc3c2c(=O)[nH]c2ncnn32)c1OC (stereo not drawn)	.	.	0.1%	.	3	0.7	-0.2%
O=C(NCCCn1ccnc1)c1ccc(Br)o1	-0.3	-8	-2.1%[38.3 µM]	-3%	1	0.9	-1.3%
Cc1ccc(NC(=O)CN(C)C(=O)c2nn(C)c(=O)c3ccccc23)cc1	1.9	.	-0.1%	14%	-5	0.3	0.4%
Clc1ccc(OCCOCCNCc2ccccc2)cc1Cl	-3.3	4	2.9%	-30%	6	-0.6	-1.0%
CCOC(=O)CS(=O)(=O)c1ccccc1	2.6	0	-0.1%	2%	-20	1.0	-3.5%
Cc1cc(Cl)ccc1C(O)c1ncc(-c2ccc(F)cc2)[nH]1 (stereo not drawn)	.	.	1.0%	.	6	-0.2	-2.2%
CCn1ccc2cc(S(=O)(=O)N3CCC(C(=O)NCCc4ccccc4)CC3)ccc21	.	.	0.0%	.	23	2.0	-6.3%

Additional compounds.
SMILES	Menin-MLL FL inh	TRPV1 potentiator	PINK1 modulator	Sfp PPTase inh	TRPML1 blocker	TRPML1 agonist	ClpP mod
CCCCCC(=O)N1CC2(CC(c3cccc(NC(=O)[C@@H]4CCC(=O)N4)c3)=NO2)C[C@@H]1C(N)=O (stereo partly drawn)	0.2	-26	0.5%	9%	-6	-0.7	0.7%
O=C(Nc1cccc(-c2cn3ccccc3n2)c1)C1CC1	3.6	?	2.4%[38.3 µM]	12%	-6	0.8	28µM*
CC(/C=C1\SC(=S)N(CCC(=O)Nc2ccc(O)cc2)C1=O)=C\c1ccccc1	17	-7	5.7%	5%	-8	0.0	0.3%
CCC(C(=O)NC1CCCCCC1)n1nc(C)c2c(C)n(-c3ccccc3)nc2c1=O (stereo not drawn)	.	-4	-0.1%	13%	-3	-1.2	-3.0%
CCCc1nc2oc3c(NCC(C)O)ncnc3c2c2c1CCCC2 (stereo not drawn)	16	-19	-0.4%	8%	28	-0.7	4.0%
CCn1c(=O)cc(OCC(=O)NCc2ccc(C)o2)c2ccccc21	8.7	-1	-1.9%[38.3 µM]	32µM*	-2	0.5	-11%
CCc1nnc(SCc2cccc(F)c2)nc1CC	.	.	4.6%	.	24	0.0	1.0%
O=C(O)CCCNC(=O)OCc1ccccc1	1.8	8	-2.5%	15%	-4	0.1	1.8%
Cc1ccc(C(=O)Oc2cc(N)n(S(=O)(=O)c3ccc(F)cc3)n2)cc1	-2.0	4	1.8%	-18%	-7	0.8	0.4%
CCN1C(=O)[C@@H]2[C@@H](c3ccc(-c4cc(C(C)=O)cs4)cc3)N3CCC[C@@]3(C(=O)OC)[C@@H]2C1=O	.	.	1.4%	.	-9	0.2	3.7%
COc1ccc(CC(NC(C)=O)C(=O)NC2CCN(S(=O)(=O)c3ccc(NC(C)=O)cc3)CC2)c(OC)c1 (stereo not drawn)	0.5	1	2.5%	-9%	6	0.0	.
N#Cc1ccccc1OCC(=O)NCC1(N2CCCCC2)CCCCC1	-6.1	-3	3.2%	22%	-5	0.1	.
CC(C)[C@H](NC(=O)OCc1ccccc1)C(=O)OCC(=O)N1CCN(c2ccccc2)CC1	.	19	4.0%	.	-19	-0.1	0.1%
Cc1ccc(Cc2c(-c3cccc(Br)c3)nc3ccc(Cl)cn23)cc1	.	.	12%	.	44	1.7	?
COc1ccc2c(c1)N1CCN=C1N2C	-1.0	-1	3.2%	10%	12	-0.6	-2.3%

Next section:
SMILES	Menin-MLL FL inh	TRPV1 potentiator	PINK1 modulator	Sfp PPTase inh	TRPML1 blocker	TRPML1 agonist	ClpP mod
Cc1cc(NC(=O)CO/N=C/c2ccc3c(c2)OCO3)ccc1Br	-1.1	7	7.6%	4%	1	0.1	-0.8%
C=CCOC(=O)/C(=C\c1cccc2ccccc12)NC(=O)c1ccccc1	-3.2	-13	0.8%	6%	-3	0.3	-0.5%
CCCC(c1nnnn1Cc1ccc(F)cc1)N1CCN(C)CC1 (stereo not drawn)	2.6	-2	0.2%	10%	-18	0.0	.
Cc1nn2c(-c3ccncc3)nnc2c2ccccc12	-2.3	-2	0.2%	21%	7	-0.8	?
O=C(Cn1cnc2ccccc2c1=O)Nc1ccc(-c2nnc3n2CCCCC3)cc1	1.1	4	?	8%	14	3.1	-5.0%
CCc1cccc(NC(=O)CSC2=NS(=O)(=O)c3ccccc32)c1	2.8	-6	6.1%	14µM*	-3	0.0	-3.9%
CCOc1ccc(S(=O)(=O)N(C)c2ccc(OCC(=O)Nc3ccc4[nH]c(=O)[nH]c4c3)cc2)cc1	3.5	5	-0.2%	-2%	11	-0.1	-5.9%
CC(NC(=O)COC(=O)Cn1cnc2ccccc2c1=O)C1CC2CCC1C2 (stereo not drawn)	6.7	-6	4.3%	-1%	14	-0.3	-2.5%
Cn1nc(C(=O)N2CCN(C(c3ccccc3)c3ccccc3)CC2)c2ccccc2c1=O	1.0	.	0.9%	-21%	.	.	-0.2%
Cc1ccc(-n2c(SCC(=O)N/N=C/C=C/c3ccccc3[N+](=O)[O-])nc3ccccc3c2=O)cc1	0.5	-2	-2.8%	20%	58	2.8	1.2%
COc1ccc(OC)c(-c2nc3cc4ccccc4cc3nc2-c2ccccc2)c1	3.0	4	1.3%	14%	4	0.4	-0.2%
CCN(CCNC(=O)Nc1ccc(Cl)cc1)c1ccccc1	7.9	-27	?	12%	4	0.0	-3.0%
O=C(OCn1nnc2ccccc2c1=O)c1cc(-c2ccccc2)nc2ccccc12	1.9	15	-2.7%	4%	-6	?	-8.1%
COc1ccccc1/C=N/Nc1cc(C)nc(N2CCOCC2)n1	0.0	-5	1.0%	16%	2	2.5	6.8%
CCCCc1nnc(NC(=O)CCS(=O)(=O)c2ccc(Cl)cc2)s1	.	-1	-1.3%	.	-10	0.5	-0.5%

By substructure: the entries above with a nitro group on carbon
SMILES	Menin-MLL FL inh	TRPV1 potentiator	PINK1 modulator	Sfp PPTase inh	TRPML1 blocker	TRPML1 agonist	ClpP mod
O=[N+]([O-])c1cc(-c2nc(-c3ccccc3)no2)ccc1NC1CCCCC1	.	.	15%	.	27	-0.7	2.7%
Cc1ccc(-n2c(SCC(=O)N/N=C/C=C/c3ccccc3[N+](=O)[O-])nc3ccccc3c2=O)cc1	0.5	-2	-2.8%	20%	58	2.8	1.2%

The results go on:
SMILES	Menin-MLL FL inh	TRPV1 potentiator	PINK1 modulator	Sfp PPTase inh	TRPML1 blocker	TRPML1 agonist	ClpP mod
O=C(COc1ccccc1)NCC(=O)N/N=C/c1ccc(O)cc1O	1.1	6	-0.7%	7%	-12	-0.4	.
COc1ccccc1NC(=O)CN1CCN(CC(=O)Nc2ccc(Cl)c(C(F)(F)F)c2)CC1	4.1	0	17%	10%	-16	-0.9	0.9%
C1CCN=C(Nc2nn[nH]n2)CC1	0.2	4	3.2%	-9%	-5	0.3	-0.4%
Cc1ccc(Cn2cc(S(=O)(=O)c3ccc(Cl)cc3)c(=O)c3cc(F)ccc32)cc1	7.9	-13	5.5%	18%	-1	0.0	?
COc1ccc(-c2ccc(CCC(=O)O)n2CC(=O)Nc2ccccc2C)cc1	2.3	11	0.4%	-6%	8	1.0	.
CCOc1ccc(NS(=O)(=O)c2ccc(C(=O)N(C)C)s2)cc1	.	.	0.3%	.	-9	-0.5	0.1%
COc1ccccc1OCCn1cc(/C=N/NC(=O)c2ccncc2)c2ccccc21	-0.8	-5	1.5%	14%	14	-0.6	1.2%
Cc1ccc(OC(C)C(=O)Nc2cc(C)on2)cc1 (stereo not drawn)	.	-14	-0.9%	-15%	22	1.9	-1.1%
COc1ccc([C@@H]2CC=C(C(=O)O)[C@H](c3ccc(F)cc3)N2S(=O)(=O)c2ccc(Cl)cc2)cc1	.	5	-0.5%	.	16	0.2	1.0%
Cn1c(=O)c2[nH]c(CCNC(=O)c3ccccc3)nc2n(C)c1=O	.	.	1.1%	.	-24	0.9	.
